Vaccinia stage – blocks a specific stage of Vaccinia orthopoxvirus infection. Vaccinia-infected cells, mCherry/Venus stage reporter fluorescence; active compounds read low; some inactives read as strong as hits. activity change (mCherry), % (concentration not given with the values). 0.01% of 89,000 active. AID 1053133;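 active means mCherry past -33% and 40 or more points under the early reporter, replicates agreeing; inconclusive means past -33% without that gap or agreement; tested in A549 cells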;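 further: scaled between vehicle wells and reference inhibitor wells; 23 nL library stock went into each well; one replicate is shown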
Vaccinia stage Venus – second read-out of Vaccinia stage, no call of its own (marks repeat the call); activity change (Venus), %; measured here: Venus reporter, other viral stage;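 negative = less Venus signal; first of two replicates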
* = called active by the depositor; u = inconclusive; x = no result given. Not all compounds are listed; rates above refer to the full screens.

SMILES	Vaccinia stage	Vaccinia stage Venus
COc1ccc(S(=O)(=O)N(C)C[C@H]2Oc3c(NC(=O)Nc4ccc(F)cc4)cccc3C(=O)N([C@@H](C)CO)C[C@H]2C)cc1	u	x
C/C=C/c1ccc([C@@H]2[C@@H](CO)N(C(=O)c3cnccn3)C23CN(C(C)=O)C3)cc1	2	8
Cc1noc(C)c1NC(=O)N(C)C[C@H]1Oc2ccc(NC(=O)c3ccncc3)cc2CC(=O)N([C@@H](C)CO)C[C@@H]1C	10	1
CCNC(=O)C[C@@H]1CC[C@H]2[C@H](COc3ccc(NC(=O)c4cc(C)on4)cc3C(=O)N2C)O1	-5	2
CCC(=O)N1[C@H](CN(CC)C(=O)c2ccccc2)[C@H](c2ccccc2)[C@@H]1CO	8	11
O=C(C[C@@H]1CC[C@H](NC(=O)CC2CC2)[C@@H](CO)O1)NCc1ccccc1	10	14
Cc1ccc(-c2ccc3c(c2)O[C@@H](CN(C)C(=O)Nc2ccc(F)cc2)[C@@H](C)CN([C@@H](C)CO)S3(=O)=O)cc1	u	x
C[C@@H]1CN([C@@H](C)CO)C(=O)c2cc(C#C[C@@H](C)O)cnc2O[C@H]1CN(C)C(=O)CN(C)C	5	9
CN(C)C(=O)c1cccc(-c2ccc([C@@H]3[C@@H](CO)N4C(=O)CN(C(=O)C5CCC5)C[C@@H]34)cc2)c1	3	-5
Cc1noc(C)c1NC(=O)N(C)C[C@H]1Oc2cc(C#CCC3CCCC3)ccc2S(=O)(=O)N([C@@H](C)CO)C[C@H]1C	u	x
Cc1noc(C)c1NC(=O)N(C)C[C@@H]1Oc2ccc(NC(=O)Nc3ccc4c(c3)OCO4)cc2C(=O)N([C@@H](C)CO)C[C@H]1C	8	7
CCCC(=O)Nc1ccc2c(c1)OC[C@@H](C)N(C(=O)Cc1cccnc1)C[C@@H](C)[C@H](OC)CN(C)C2=O	19	2
CN(C)C(=O)[C@H]1[C@H](CO)[C@H]2Cn3c(ccc(-c4ccccc4)c3=O)[C@H]2N1C(=O)c1ccccn1	22	17
Cc1ccc(-c2ccc3c(c2)O[C@H](CN(C)C(=O)C2CCC2)[C@@H](C)CN([C@H](C)CO)S3(=O)=O)cc1	-28	-24
C/C=C/c1ccc([C@@H]2[C@@H](CO)N3C(=O)CN(C(=O)c4ccncc4)C[C@@H]23)cc1	1	6
COc1ccccc1CNC(=O)C[C@H]1C[C@@H]2c3cc(NS(=O)(=O)c4ccc(F)cc4)ccc3O[C@@H]2[C@H](CO)O1	-14	-3
N#C[C@@H]1[C@H](c2ccc(C#CC3CCCC3)cc2)[C@H](CO)N1C(=O)Cc1ccccn1	-21	-10
N#C[C@H]1[C@H](c2ccccc2)[C@H](CO)N1S(=O)(=O)c1ccc(-c2ccccc2)cc1	-28	-23
CN1C(=O)c2cc(NC(=O)C3CC3)ccc2OC[C@@H]2O[C@H](CC(=O)NCC3CCCCC3)CC[C@H]21	9	14
Cc1noc(C)c1NC(=O)N(C)C[C@@H]1Oc2ccc(NS(=O)(=O)c3c(C)noc3C)cc2CC(=O)N([C@H](C)CO)C[C@@H]1C	19	14
O=S(=O)(c1cccs1)N1CCCCN2[C@H](C1)[C@H](c1ccc(C3=CCCC3)cc1)[C@@H]2CO	15	14
CCCC(=O)Nc1ccc2c(c1)C(=O)N(C)C[C@@H](OC)[C@@H](C)CN(C(=O)CN(C)C)[C@H](C)CO2	6	6
CN1C(=O)c2cc(NC(=O)C3CCOCC3)ccc2OC[C@@H]2O[C@H](CC(=O)NCc3ccc4c(c3)OCO4)CC[C@@H]21	7	14
C[C@H]1CN([C@@H](C)CO)S(=O)(=O)c2ccc(C#Cc3ccncc3)cc2O[C@H]1CN(C)S(=O)(=O)c1ccccc1	-32	-14
COc1ccc(S(=O)(=O)N(C)C[C@H]2OCc3cn(nn3)CCCC(=O)N([C@@H](C)CO)C[C@H]2C)cc1	10	11
O=C(NCC[C@H]1CC[C@H](NS(=O)(=O)c2ccc(F)cc2)[C@H](CO)O1)c1ccc2c(c1)OCO2	-3	3
COCCNC(=O)C[C@H]1C[C@@H]2c3cc(NC(=O)COC)ccc3O[C@@H]2[C@H](CO)O1	14	2
COc1ccc(S(=O)(=O)Nc2cccc3c2O[C@@H](CN(C)Cc2ccc(C(=O)Nc4ccccc4N)cc2)[C@H](C)CN([C@@H](C)CO)C3=O)cc1	17	13
C[C@@H](NC(=O)C[C@H]1CC[C@@H](NC(=O)C2CCC2)[C@@H](CO)O1)c1ccccc1	5	7
CN(C)CCCNC(=O)[C@@H]1[C@@H](CO)[C@@H]2Cn3c(ccc(-c4ccccc4)c3=O)[C@H]1N2C	-9	1
CCCNC(=O)N1CCC2(CC1)CN(Cc1ccccn1)[C@@H](CO)c1c2c2ccc(OC)cc2n1C	-5	3
O=C(NCC[C@@H]1CC[C@H](NS(=O)(=O)c2ccc(Cl)cc2)[C@@H](CO)O1)Nc1ccc(F)cc1	-33	-27
O=C(c1ccc2c(c1)OCO2)N1C[C@H]2[C@@H](c3ccccc31)[C@@H](CO)N2Cc1ccc2c(c1)OCO2	-9	-6
Cc1ccccc1CN(C)C[C@H]1OCc2cn(nn2)CCCC(=O)N([C@@H](C)CO)C[C@H]1C	-3	4
COc1cccc(C(=O)Nc2ccc3c(c2)C(=O)N(C)C[C@H](OC)[C@@H](C)CN(CC2CC2)[C@H](C)CO3)c1	-1	1
COCCNC(=O)C[C@H]1CC[C@@H]2[C@@H](COc3ccc(NC(=O)Nc4cccc(F)c4)cc3C(=O)N2C)O1	15	6
C[C@@H]1CCCCO[C@@H](CN(C)C(=O)c2ccccc2)[C@H](C)CN([C@@H](C)CO)C(=O)c2cc(NS(=O)(=O)c3cccs3)ccc2O1	-2	-6
C[C@@H]1CCCCO[C@H](CN(C)C(=O)C2CCCCC2)[C@@H](C)CN([C@H](C)CO)C(=O)c2cc(NC(=O)NC3CCCCC3)ccc2O1	-15	-14
COc1ccc(S(=O)(=O)N(C)C[C@@H]2Oc3c(NC(=O)C4CCCCC4)cccc3C(=O)N([C@@H](C)CO)C[C@H]2C)cc1	6	2
CCC(=O)N1[C@@H](CO)[C@H](c2ccc(-c3cccnc3)cc2)[C@@H]1CN(CC)C(C)=O	8	20
CCC(=O)N1[C@@H]2Cn3c(ccc(-c4ccc(F)cc4)c3=O)[C@H]1[C@@H](C(=O)OC)[C@@H]2CO	-6	-3
CCc1cnc(N2[C@H](CO)[C@@H](c3ccc(C4=CCCC4)cc3)[C@@H]2C#N)s1	-11	-3
N#C[C@@H]1N[C@@H](CO)[C@@H]1c1ccc(C2=CCCCC2)cc1	5	8
CC(C)C#Cc1cnc2c(c1)C(=O)N([C@H](C)CO)C[C@H](C)[C@H](CN(C)C(=O)c1cccnc1)O2	5	-1
CCCNC(=O)N1C[C@H](C)[C@@H](OC)CN(C)C(=O)c2ccc(NC(=O)CCC)cc2OC[C@H]1C	17	11
COCC(=O)Nc1ccc2c(c1)C(=O)N(C)C[C@H](OC)[C@@H](C)CN(CCc1ccccc1)[C@H](C)CO2	-6	-1
COc1ccc(NC(=O)N(C)C[C@@H]2Oc3c(NC(=O)c4ccncc4)cccc3C(=O)N([C@H](C)CO)C[C@@H]2C)cc1	7	12
Cc1noc(C)c1S(=O)(=O)Nc1ccc2c(c1)C(=O)N([C@H](C)CO)C[C@H](C)[C@H](CN(C)C(=O)CCC(F)(F)F)OCCCC[C@H](C)O2	-18	-11
CS(=O)(=O)N1[C@H](CO)[C@H](c2ccccc2-c2ccccc2F)[C@@H]1C#N	-9	-9
O=C(C1CC1)N1CCCCN2[C@H](C1)[C@H](c1ccc(C#CC3CCCC3)cc1)[C@@H]2CO	u	x
COc1ccc(S(=O)(=O)Nc2cccc3c2O[C@H](CN(C)C(=O)Nc2ccc(C(F)(F)F)cc2)[C@@H](C)CN([C@H](C)CO)C3=O)cc1	5	-1
CCCNC(=O)C[C@@H]1CC[C@@H]2[C@H](COc3ccc(NC(=O)C4CCOCC4)cc3C(=O)N2C)O1	7	11
C[C@@H]1CN([C@H](C)CO)S(=O)(=O)c2ccc(C3=CCCCC3)cc2O[C@H]1CN(C)S(=O)(=O)c1cn(C)cn1	-12	-11
C[C@@H]1CN([C@@H](C)CO)S(=O)(=O)c2ccc(C3=CCCCC3)cc2O[C@H]1CN(C)C(=O)c1ccccc1	u	x
C[C@@H]1CN([C@@H](C)CO)C(=O)c2cc(NS(=O)(=O)c3cn(C)cn3)ccc2O[C@@H]1CN(C)C(=O)NC1CCCCC1	18	17
C[C@@H]1CN([C@H](C)CO)C(=O)c2cc(-c3ccccc3F)cnc2O[C@H]1CN(C)C(=O)C1CCC1	6	14
Cc1ccc(S(=O)(=O)N(C)C[C@@H]2Oc3cc(C#Cc4ccccc4)ccc3S(=O)(=O)N([C@H](C)CO)C[C@@H]2C)cc1	9	-1
Cc1ccc(S(=O)(=O)Nc2ccc3c(c2)C(=O)N([C@@H](C)CO)C[C@H](C)[C@H](CN(C)S(=O)(=O)c2cccs2)O3)cc1	-13	-2
O=C(c1ccc(F)cc1)N1CCCCN2[C@H](C1)[C@@H](c1ccc(-c3ccc(F)cc3)cc1)[C@@H]2CO	u	x
COCC(=O)Nc1ccc2c(c1)C(=O)N(C)C[C@H](OC)[C@H](C)CN(C)[C@@H](C)CO2	-1	-5

Two entries from above, as labelled records:
Cc1ccc(S(=O)(=O)N(C)C[C@@H]2Oc3cc(C#Cc4ccccc4)ccc3S(=O)(=O)N([C@H](C)CO)C[C@@H]2C)cc1
  Vaccinia stage: 9 | Vaccinia stage Venus: -1

Cc1ccc(S(=O)(=O)Nc2ccc3c(c2)C(=O)N([C@@H](C)CO)C[C@H](C)[C@H](CN(C)S(=O)(=O)c2cccs2)O3)cc1
  Vaccinia stage: -13 | Vaccinia stage Venus: -2

Shown with two lines to a compound: part of the list above.
Order of values – Vaccinia stage	Vaccinia stage Venus
> O=C(C1CC1)N1CCCCN2[C@H](C1)[C@H](c1ccc(C#CC3CCCC3)cc1)[C@@H]2CO
 : u	x
> COc1ccc(S(=O)(=O)Nc2cccc3c2O[C@H](CN(C)C(=O)Nc2ccc(C(F)(F)F)cc2)[C@@H](C)CN([C@H](C)CO)C3=O)cc1
 : 5	-1

Next part.
SMILES	Vaccinia stage	Vaccinia stage Venus
C[C@H](CO)N1C[C@H](C)[C@@H](CN(C)Cc2ccc(Cl)c(Cl)c2)Oc2ccc(NC(=O)Cc3cn(C)c4ccccc34)cc2CC1=O	u	x
C[C@@H]1CN([C@@H](C)CO)C(=O)c2cccc(NC(=O)c3cnccn3)c2O[C@H]1CN(C)C(=O)Nc1ccccc1	15	8
COCC#Cc1ccc2c(c1)O[C@@H](CN(C)S(=O)(=O)c1cccc(OC)c1)[C@@H](C)CN([C@@H](C)CO)S2(=O)=O	18	-3
COc1ccc(NC(=O)N(C)C[C@@H]2OCCCC[C@H](C)Oc3ccc(NC(=O)Nc4ccc(F)cc4)cc3C(=O)N([C@H](C)CO)C[C@@H]2C)cc1	10	6
CCCNC(=O)N1CC2(CCN(C)CC2)c2c([nH]c3cc(OC)ccc23)[C@H]1CO	1	-1
C/C=C/c1ccc([C@H]2[C@@H](CO)N(C(=O)COC)[C@H]2CNC(=O)C2CCC2)cc1	8	1
CNC[C@H]1OCc2ccccc2-c2c(n(C)c3ccccc23)C(=O)N([C@H](C)CO)C[C@H]1C	-7	-2
Cc1ccc(S(=O)(=O)N[C@H]2C=C[C@H](CC(=O)NCCCN(C)C)O[C@H]2CO)cc1	10	0
C[C@H](CO)N1C[C@H](C)[C@H](CN(C)Cc2ccncc2)OCCCC[C@H](C)Oc2ccc(NC(=O)Cc3ccccc3)cc2C1=O	-18	-10
C[C@@H]1CN([C@H](C)CO)C(=O)c2cc(NC(=O)Nc3ccccc3)ccc2O[C@@H](C)CCCCO[C@H]1CN(C)S(=O)(=O)c1ccc(Cl)cc1	-9	7
CCC(=O)Nc1ccc2c(c1)C(=O)N(C)[C@H]1CC[C@H](CC(=O)Nc3ccc(OC)cc3)O[C@@H]1CO2	-2	-1
COc1ccc(-c2ccc3c(c2)O[C@@H](CN(C)C)[C@H](C)CN([C@@H](C)CO)S3(=O)=O)cc1	-13	-4
CCCNC(=O)[C@H]1[C@H](CO)[C@H]2Cn3c(cccc3=O)[C@H]2N1C(=O)C1CC1	-3	-6
C[C@H](CO)N1C[C@H](C)[C@H](CN(C)C)Oc2ccc(NC(=O)C3CCCCC3)cc2CC1=O	-1	-2
CO[C@H]1CN(C)C(=O)c2cc(NC(=O)c3cnccn3)ccc2OC[C@H](C)N(C(=O)C2CC2)C[C@@H]1C	-19	-20
O=C(C[C@@H]1CC[C@@H]2[C@H](COC[C@@H](O)CN2S(=O)(=O)c2ccccc2)O1)NCC1CCCCC1	-8	-14
O=C(Nc1cccc(Cl)c1)N1C[C@@H]2[C@H](c3ccccc31)[C@@H](CO)N2C(=O)c1cccnc1	3	0
C[C@@H]1CN([C@H](C)CO)C(=O)Cc2cc(NC(=O)C3CCCCC3)ccc2O[C@H]1CN(C)Cc1ccc(Cl)c(Cl)c1	u	x
C[C@@H]1CN([C@@H](C)CO)S(=O)(=O)c2ccc(-c3ccncc3)cc2O[C@H]1CN(C)Cc1ccc(Oc2ccccc2)cc1	1	1
CC(=O)N1CC(=O)N2[C@H](CO)[C@@H](c3ccc(-c4ccc(C(=O)N(C)C)cc4)cc3)[C@@H]2C1	20	17
CC(C)C#Cc1ccc([C@@H]2[C@@H](CO)N3C(=O)CN(C(=O)c4ccc5c(c4)OCO5)C[C@@H]23)cc1	-10	-2

One compound at a time (already shown):
CCCNC(=O)[C@H]1[C@H](CO)[C@H]2Cn3c(cccc3=O)[C@H]2N1C(=O)C1CC1 as listed: Vaccinia stage = -3; Vaccinia stage Venus = -6
CO[C@H]1CN(C)C(=O)c2cc(NC(=O)c3cnccn3)ccc2OC[C@H](C)N(C(=O)C2CC2)C[C@@H]1C as listed: Vaccinia stage = -19; Vaccinia stage Venus = -20

Source: PubChem (Broad Institute)
